# Rce1 inhib – yeast Ras-converting enzyme inhibition; Q03530; calls only; AID 2563; 290,000 compounds, 0.27% hits; yeast membranes, quenched prenylated peptide cleavage fluorescence;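 active = fall in fluorescence gain of 50% or more versus controls, with final raw signal at or below 3038400; inconclusive = same 50% fall but final raw signal above 3038400; inactive = fall in fluorescence gain under 50%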;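 also: plate controls were neutral control wells for no effect and wells lacking membranes for full effect; tested at 10 µM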
# Target sequence (Q03530 whole entry, looked up): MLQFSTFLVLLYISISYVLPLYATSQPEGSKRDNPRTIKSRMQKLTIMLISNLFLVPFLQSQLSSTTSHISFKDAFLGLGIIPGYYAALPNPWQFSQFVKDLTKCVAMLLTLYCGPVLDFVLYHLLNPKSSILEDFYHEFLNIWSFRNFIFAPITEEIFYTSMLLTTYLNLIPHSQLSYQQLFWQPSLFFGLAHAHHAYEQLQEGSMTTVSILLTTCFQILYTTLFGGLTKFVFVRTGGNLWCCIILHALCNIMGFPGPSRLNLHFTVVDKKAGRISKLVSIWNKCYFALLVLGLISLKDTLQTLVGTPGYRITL
# Yeast UUG start – alters start codon recognition fidelity in yeast. activity score, % at 18.7 µM. S. cerevisiae UUG-firefly luciferase reporter, luminescence/redox ratio. 350,000 compounds, 0.13% hits;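 active = replicate mean at a twofold rise or more, about +100% in these data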;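 also: firefly luciferase made from a UUG start codon reports start codon fidelity; reporter light over untreated wells divided by growth signal over untreated wells; some hits fall short of that in this replicate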
# PABP polyA inh – PABP-poly(A) binding inhibition; P11940; PABP-poly(A) RNA binding, fluorescence polarization; inhibition, % at 35 µM; 290,000 compounds, 1% hits;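 active = 50% or more with normal probe brightness, or confirmed in later tests; inconclusive = above 50% with abnormal brightness, or retests that disagree; inactive = below 50% or failed in later tests; about a fifth of its hits are not listed in these tables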;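 also: calls also rest on retests at 20 µM and on dose response follow-up; controls were probe without protein and protein plus probe with vehicle; some compounds called inactive have numbers as strong as hits; many hits fall short of the cut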
# MT1-MMP act inh – inhibitors of human MT1-MMP activation; 360,000 compounds, 0.061% hits; P50281; AID 651647; HT1080 RFP-PRO-GFP cells, GFP/RFP ratio fluorescence, overnight; percent of plate control window, DMSO zero; GFP/RFP ratio change, % at 20 µM;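 active = GFP/RFP ratio change of at least 30% with cell ATP level not reduced by more than half and red fluorescence within 50% of control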; also: strong numbers were not always called active
#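 Read-out: GFP/RFP fluorescence ratio; Test system: RFP-PRO-GFP reporter HT1080 cells; Compound dosing: single-point 20 µM compound, 1% DMSO; Times: overnight compound exposure at 37 °C.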
# CSC inhib – blocks cancer stem cells; inhibition, % at 7.5 µM; 300,000 compounds, 1.1% hits; cancer stem cell-like cells viability, luminescence; AID 2717;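 active = mean at 75% or more and at least half the replicates too; inconclusive = mean and replicates disagree; tested in HMLE shEcad cells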;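 also: 0% = median of negative and 100% = median of positive control wells; the first replicate is given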
# eIF4H FP inh – inhibitors of RNA binding by human eIF4H | eIF4H fluorescence polarization binding assay | 290,000 compounds, 0.94% hits | Q15056 | inhibition, % at 35 µM;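 active = 50% or more with normal probe brightness, or confirmed in later tests; inconclusive = above 50% with abnormal brightness, or retests that disagree; inactive = below 50% or failed in later tests; about a fifth of its hits are not listed in these tables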;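 also: calls also rest on retests at 20 µM and on dose response follow-up; 0% = protein and probe with vehicle and 100% = probe without protein; strong numbers were not always called active; many hits fall short of the cut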
# HIV Env fusion – blocks HIV Env-driven cell-cell fusion | HeLa-JRFL Env/CEM21 cell fusion, luciferase | inhibition, % at 12.3 µM | 360,000 compounds, 1.1% hits;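 active = mean replicate inhibition score of at least 50 and every replicate individually at or above 50; inconclusive = only one of the two criteria met; inactive = mean below 50 and not all replicates reaching 50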;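 also: 0% = plate neutral controls and 100% = maraviroc near 300 nM; one replicate is shown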
# eIF4H FP inh retest – further read-out of eIF4H FP inh, marked with its call; inhibition, %; compound at 20 µM; confirmation average;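 mean of two retest wells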
# PABP polyA inh retest – further read-out of PABP polyA inh, marked with its call; inhibition, %; compound at 20 µM; confirmation repeats;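 mean of two retest wells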
# MT1-MMP act inh RFP – second read-out of MT1-MMP act inh, no call of its own (marks repeat the call); RFP signal change, %; measured here: RFP expression control read;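 0 = vehicle wells; hits needed this value within 50% of zero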
# Numbers without * were called inactive; i = inactive; ? = inconclusive; / = no result given. An excerpt, so the mix of outcomes need not match the whole.
# Sample of the layout (2 entries):
SMILES,Rce1 inhib,Yeast UUG start,PABP polyA inh,MT1-MMP act inh,MT1-MMP act inh RFP,CSC inhib,eIF4H FP inh,HIV Env fusion,others
CC1CCCC(NC(=O)CN(C)S(=O)(=O)c2cccc3cccnc23)C1C (stereo not drawn),i,-22,0,-3,-3,-15,-7,-15,
COc1ccc(S(=O)(=O)N2CCC(C(=O)NCCC(=O)NCc3cccc(OC)c3)CC2)cc1,i,-6,10,0,4,-12,0,-2,

# This part in full, from the start:
SMILES,Rce1 inhib,Yeast UUG start,PABP polyA inh,MT1-MMP act inh,MT1-MMP act inh RFP,CSC inhib,eIF4H FP inh,HIV Env fusion,others
CC1CCCC(NC(=O)CN(C)S(=O)(=O)c2cccc3cccnc23)C1C (stereo not drawn),i,-22,0,-3,-3,-15,-7,-15,
COc1ccc(S(=O)(=O)N2CCC(C(=O)NCCC(=O)NCc3cccc(OC)c3)CC2)cc1,i,-6,10,0,4,-12,0,-2,
COc1ccc(OCCn2c(C)c(/C=N/n3cnnc3)c3ccccc32)cc1,i,-17,2,3,-8,-12,-7,/,
CCOc1ncccc1C(=O)OCC(=O)Nc1c(C)cc(C)cc1C,/,-6,-3,1,1,4,10,-8,
CC(C)/C=N/NC(=O)c1cc(Br)ccc1O,i,/,12,4,5,-3,15,-7,
CCOC(=O)c1ccccc1NC(=O)Cc1ccccc1OC,i,40,-6,-5,-3,-13,-10,-134,
O=C1CCc2cc(S(=O)(=O)N3CCC(C(=O)Nc4nccs4)CC3)ccc2N1,i,-20,-22,-2,-4,-9,-12,2,
COc1ccc(S(=O)(=O)N2CCC3(CC2)OCCN3S(=O)(=O)c2ccc(C)cc2)cc1OC,i,-15,/,0,-4,-1,/,-29,
COc1ccccc1C(=O)NCCN1CCN(C(=O)c2ccccc2OC)CC1,i,-7,0,-5,2,-1,-8,-4,
Cc1ccccc1-c1noc(-c2ccc(O)cc2)n1,i,-54,10,-5,-4,96*,7,/,
CC(=O)Nc1ccc(S(=O)(=O)NCCC(=O)N2CCc3ccccc32)cc1,i,-10,-9,0,-5,-6,3,-1,
Cc1cnc(C(=O)OCC(=O)Nc2cc(-c3cc(C)c(C)cc3C)nn2-c2ccccc2)cn1,i,-1,/,-1,-1,/,/,4,
Cc1cc(NC(=O)c2ccc(F)c(S(=O)(=O)N3CCCCC3)c2)no1,i,-2,-2,4,-1,/,-5,3,
Cc1ccc(/C=N/n2c(C3CCCCC3)n[nH]c2=S)s1,i,/,3,-1,1,-1,-15,-15,
CC(=O)N1C(=O)/C(=C2\SC(=S)N(NC(=O)c3ccc(O)cc3)C2=O)c2ccccc21,i,-1,12,4,6,-3,-4,-2,
Cc1ccccc1C[n+]1cccc2ccccc21,i,-5,/,-5,-3,-15,/,-13,
CC1CCN(CC(=O)Nc2ccc(S(=O)(=O)N3CCC(C)CC3)cc2)CC1,i,-11,9,3,-3,35,-1,-16,
CC(C)Oc1ccc(Cc2cnc(=S)[nH]c2N)cc1,/,-28,7,2,0,-11,5,1,
O=S(=O)(c1ccc(-c2cn3ccccc3n2)cc1)N1CCOCC1,i,-5,-2,26,-1,-6,-5,20,
O=C(c1ccc(F)cc1)c1c[nH]c(C(=O)NCc2ccco2)c1,i,-17,-4,-4,1,-1,-3,/,
C=CCN(C(=O)c1ccccc1)c1ccc(OC)cc1,i,-26,16,-3,-4,30,4,-92,
O=C(c1ccccc1Sc1ccccc1[N+](=O)[O-])N1CCCCC1,i,/,5,-2,2,-2,-3,-153,
O=C1c2ccccc2C(=O)N1CCCn1nnc(-c2ccc(N3CCOCC3)cc2)n1,i,-2,7,-2,-2,-13,5,3,
Cc1ccc(C)c(C(=O)COC(=O)c2cc(S(=O)(=O)N3CCOCC3)ccc2F)c1,/,-17,/,-1,3,/,/,i,
CC(=O)c1cccc(NC(=O)Nc2cccnc2)c1,i,-13,4,-12,-14,6,-3,?,
CC(C)(O)CC[C@@H](O)[C@](C)(O)[C@H]1CC[C@@]2(O)C3=CC(=O)[C@@H]4C[C@@H](O)[C@@H](O)C[C@]4(C)[C@H]3CC[C@]12C,i,5,6,1,6,-6,-7,16,
Cc1ccc(CCNC(=O)C2CCCN(S(=O)(=O)c3cccc4nsnc34)C2)cc1 (stereo not drawn),i,-20,6,-1,-4,-1,-7,-13,
O=[N+]([O-])c1ccc(Cl)c(/C=N/n2c(-c3cccnc3)n[nH]c2=S)c1,i,/,-8,/,/,7,1,/,
COc1ccc(OC(C)C(=O)N(C)Cc2nc(-c3cccc(C)c3)no2)cc1 (stereo not drawn),i,16,-6,5,-10,-1,-8,19,
CN(c1ccccc1)S(=O)(=O)c1ccc(C(=O)N2CCc3ccccc3C2)cc1,i,3,-10,-2,1,-7,3,28,
CCN(CC)C(=O)Oc1ccc2cc(Br)ccc2c1,i,/,-4,0,0,8,-11,/,
O=C1CC(c2ccccc2)=C(c2ccccc2)C1c1ccccc1 (stereo not drawn),/,1,/,-2,0,/,/,22,
O=C(NCc1nnnn1-c1ccc(F)cc1)c1ccc(S(=O)(=O)N2CCOCC2)cc1,/,-15,/,4,4,/,/,-1,
NC(=O)Nc1ccc(C(=O)OCC(=O)Nc2ccc(Cl)cn2)cc1,i,-6,0,3,7,-25,-11,-12,
CC1CCN(C(=O)CCCOc2cc(=O)n(C)c3ccccc23)CC1,i,5,1,2,5,3,-9,-6,
O=[N+]([O-])c1ccc2c(c1)C(N1CCOCC1)/C(=C/COc1ccc3ccccc3c1Br)O2 (stereo not drawn),/,/,-8,-1,4,16,-2,/,
CC1C(=O)Nc2ccccc2N1C(=O)c1ccc(Cl)cc1 (stereo not drawn),i,-14,9,-6,-3,-4,1,21,
O=C(COc1coc(CN2CCN(c3ccc(F)cc3)CC2)cc1=O)NCC1CCCO1 (stereo not drawn),i,-3,/,-1,1,0,/,-10,
O=[N+]([O-])c1cc(C=Nc2ccc3ccccc3c2)ccc1Br,i,/,12,7,4,/,2,11,
Brc1ccc(-c2nnc3ccc(Nc4ccccc4)nn23)cc1,i,/,-9,/,/,-9,-1,/,
Cc1ccc2nc(-c3ccc(F)cc3)c(Cc3ccccc3C(F)(F)F)n2c1,/,-3,/,-3,0,/,/,10,
COc1ccc(C(=O)O/N=C(\N)c2ccccc2)cc1,i,-74,-6,3,-2,-8,0,-54,
O=C(NCc1cccnc1)Nc1cccc(Cl)c1Cl,i,-9,-2,2,-2,-33,2,-10,
Cc1cccc(N/C(=N\S(=O)(=O)c2ccccc2)C(F)(F)F)c1,i,/,-3,4,10,8,-1,/,
Nc1ccnc(=O)[nH]1,i,-16,/,-3,2,-6,/,4,
CCCN(CC(=O)Nc1ccccc1C)C(=O)c1ccc(N2CCCCCC2)c([N+](=O)[O-])c1,i,16,-7,2,1,-7,-7,-22,
CCC[C@@H](CN1CCC[C@H]1CN1C(N)=NC[C@H]1CC(C)C)N1C[C@@H]([C@H](C)CC)N(CCc2ccc(Cl)c(Cl)c2)C1=N,/,6,/,3,11,/,/,28,
CCc1nc(NCc2ccco2)c2oc3ccccc3c2n1,i,-9,2,0,-11,13,-10,/,
CCN1CCN(c2ccc(S(=O)(=O)N3CCCCC3)cc2NC(=O)c2cccc(F)c2)CC1,i,/,/,1,2,-16,/,i,
COc1c(O)c(O)c2oc(-c3ccccc3)cc(=O)c2c1OC,/,8,4,-1,0,-5,8,/,
Cc1ccc(NC(=O)c2ccc(OC(=O)COc3cccc(Cl)c3)cc2)cc1,i,3,4,3,5,4,1,-34,
O=C(O)C(Cc1ccccc1)N1C(=O)/C(=C/c2cccc3ccccc23)SC1=S (stereo not drawn),/,/,-3,/,/,73,5,/,
COC(=O)Cn1ccc2cc(S(=O)(=O)N3CCCCCC3)ccc21,i,-16,-4,0,3,5,-9,4,
C#CCOCCOCCOCCNc1nc(N2CCN(C(=O)Cn3cc(CCCN=C(N)N)nn3)CC2)nc(N2CCN(C(=O)[C@H](CCCCN)n3cc(CCCC)nn3)CC2)n1,/,7,/,5,1,-8,/,38,
COc1ccc2c(c1)OC[C@H]1[C@H]2N2C(=O)c3cc(C)ccc3NC(=O)[C@@]2(C)[C@H]1c1ccccc1,/,3,/,-15,-13,12,/,/,
COc1c(O)ccc(/C=N\NC(=O)c2ccc3c(c2)OCO3)c1[N+](=O)[O-],i,-7,0,0,0,-9,-11,10,
CC(C)=CCC[C@](C)(O)C1CC[C@]2(C)C1C(O)CC1[C@@]3(C)CCC(O)C(C)(C)C3C(O[C@@H]3OC(CO)C(O)C(O)C3O[C@@H]3OC(C)C(O)C(O)C3O)C[C@]12C (stereo partly drawn),/,18,/,6,7,4,/,-98,
CCOc1ccc(CSC2=NCCN2)cc1Cl,i,/,-2,8,9,-10,8,-80,
COC(=O)c1sccc1-c1ccc(C(N)=O)o1,i,/,11,/,/,-6,8,/,
CCc1cccc(C)c1N1C(=O)CN(Cc2ccccc2)C1=S,i,-3,3,-7,-3,6,13,-12,

# The listing continues:
SMILES,Rce1 inhib,Yeast UUG start,PABP polyA inh,MT1-MMP act inh,MT1-MMP act inh RFP,CSC inhib,eIF4H FP inh,HIV Env fusion,others
CCOc1ccc(S(=O)(=O)NCC(=O)N(C)Cc2cccnc2)cc1,i,-19,5,4,5,-4,2,/,
CCN1/C(=C2\C(=O)N(C)C(=S)N2C)C=Cc2cc(OC)ccc21,i,/,1,2,8,-14,-4,7,
COc1ccc(NS(=O)(=O)c2cccc(C(=O)NCC(c3cccs3)N3CCOCC3)c2)cc1 (stereo not drawn),/,4,/,5,-3,-6,/,0,
Cc1ccc(NC(=O)c2cccc3c2C(=O)N(C2CCCCC2)C3)c(Cl)c1,i,-19,-8,-5,-7,-24,-9,/,
CS(=O)(=O)c1ccc(-n2nnc3ccccc32)c([N+](=O)[O-])c1,i,2,3,-2,0,2,-7,8,
O=C(Cc1cccs1)N/N=C/C=C/c1ccco1,i,-12,-5,1,2,-8,94,11,eIF4H FP inh retest=-8;PABP polyA inh retest=10
COc1ccc(C(=O)Nc2nc3c(s2)CCCC3)cc1S(=O)(=O)N1CCCc2ccccc21,i,-10,2,-5,-23,/,-2,44,
CCN(CC)c1ccc(C(=O)NNC(=O)CNC(=O)c2cccs2)cc1,/,-17,/,10,2,-17,/,i,
O=C(CSCc1cccc(Br)c1)N1CCOCC1,i,-4,16,2,-2,-8,0,0,
COC(/C=C/Nc1ccc(Cl)cc1)=C(C#N)C#N,i,/,-5,0,0,-3,7,-6,
CCCc1nc2ccccc2n1CCc1ccccc1,i,-20,-7,-1,-2,-8,-5,6,
O=C(NNC(=O)c1cccnc1SCc1cccc([N+](=O)[O-])c1)c1ccccn1,i,-17,-6,13,-6,/,11,/,
Cc1ccc(CN(C)C(=O)C2CCC(=O)N(CCc3ccccc3)C2)o1 (stereo not drawn),i,0,11,-7,1,/,-7,-8,
CNc1cc(NS(=O)(=O)c2ccc(N)cc2)nc(NC)n1,/,-29,/,-2,0,-17,/,-12,
CC(CN1C(C)CCCC1C)OC(=O)c1ccc(F)cc1 (stereo not drawn),i,-9,-9,-1,2,-16,8,-8,
CN(CC(=O)N1CCCCCC1)S(=O)(=O)c1cccc2cccnc12,i,-4,6,-3,4,-5,-4,-7,
COc1ccc(CNC(=O)c2cc3ccccc3oc2=O)cc1,i,-5,-8,-3,-3,-13,-8,-5,
O=C(Cc1ccc([N+](=O)[O-])cc1)Nc1ccon1,i,-11,-11,-1,5,-16,-2,4,
O=C(CCN1CCN(c2ccc(F)cc2)CC1)Nc1ccc(F)cc1,i,-1,-7,3,-2,-3,4,/,
